Compound activity (PubChem)
DUX4 txn inh: blocks DUX4-driven transcriptional activation; actives 0.8% (n = 37,000); 293T-iDUX4 ZSCAN4-Gaussia luciferase reporter, 24 h; active compounds read low; AID 1224904; activity change, negative = inhibition, % (concentration not given with the values);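 active means -10% or lower and over 25 points stronger than a control reporter; inconclusive means -10% or lower with a smaller gap; inactive means above -10%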;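 further: 0% = median of neutral control wells and -100% = median of positive control wells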
DUX4 txn inh difference: further read-out of DUX4 txn inh, marked with its call; Gaussia minus Italica difference, %; measured here: selective DUX4 reporter inhibition;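 worked out from the two reporters; negative = selective loss of the DUX4 reporter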
DUX4 txn inh control: recorded beside DUX4 txn inh, whose call it bears; activity change, negative = inhibition, %; measured here: Italica tet-on control reporter;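 0 = neutral control and -100 = positive control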
The depositor's hits bear a star; ? = inconclusive; nt = not tested or not shown. An excerpt; the hit share may differ from the screen's.

SMILES	DUX4 txn inh	DUX4 txn inh difference	DUX4 txn inh control
CCCNC(=O)N1CC2(CN(S(=O)(=O)c3cccc(OC)c3)C2)c2c(n(C)c3cc(OC)ccc23)[C@H]1CO	3.8	0.8	2.9
CN1[C@@H]2c3ccc(-c4ccccc4)c(=O)n3C[C@H]1[C@H](CO)[C@H]2C(=O)NCCCN1CCOCC1	15.0	12.5	2.6
COc1cccc(NC(=O)N(C)C[C@@H]2OCc3cn(nn3)CCCC(=O)N([C@H](C)CO)C[C@@H]2C)c1	7.3	3.4	3.9
O=C(C[C@H]1CC[C@@H]2[C@H](COC[C@H](O)CN2S(=O)(=O)c2cccc(F)c2)O1)NCCCN1CCOCC1	9.3	9.1	0.2
CC(C)NC(=O)N(C)C[C@H]1Oc2ccc(NC(=O)Cc3ccccc3)cc2CC(=O)N([C@H](C)CO)C[C@@H]1C	-5.2	-6.5	1.3
COc1cccc(S(=O)(=O)N2C[C@@H]3N[C@H](C2)C3c2ccc(-c3ccccc3OC)cc2)c1 (stereo partly drawn)	?	2.4	-11.3
COC(=O)C[C@@H]1CC[C@H]2[C@@H](COc3ccc(NC(=O)Nc4c(C)noc4C)cc3C(=O)N2C)O1	1.3	-1.7	2.9
C[C@H](O)C#Cc1ccc([C@@H]2[C@H]3CN(C(=O)c4ccc5c(c4)OCO5)CCCCN3[C@H]2CO)cc1	23.1	19.9	3.2
C[C@H](CO)N1C[C@H](C)[C@@H](CN(C)S(=O)(=O)c2cccc(F)c2)OCc2cnnn2CCCC1=O	6.9	4.8	2.0
COc1ccc(NC(=O)Nc2ccc3c(c2)C(=O)N([C@H](C)CO)C[C@@H](C)[C@H](CN(C)S(=O)(=O)c2cn(C)cn2)O3)cc1	-2.2	3.8	-6.0
C[C@H](NC(=O)[C@H]1[C@H](CO)[C@H]2Cn3c(ccc(-c4ccncc4)c3=O)[C@@H]1N2C)c1ccccc1	1.4	2.4	-1.0
CN1C(=O)c2cc(NC(=O)Cc3cccs3)ccc2OC[C@H]2O[C@H](CC(=O)N[C@H]3CCN(Cc4ccccc4)C3)CC[C@@H]21	1.8	6.3	-4.5

Brought forward from above: 6 compounds, followed by the next part.
SMILES	DUX4 txn inh	DUX4 txn inh difference	DUX4 txn inh control
COC(=O)C[C@@H]1CC[C@H]2[C@@H](COc3ccc(NC(=O)Nc4c(C)noc4C)cc3C(=O)N2C)O1	1.3	-1.7	2.9
C[C@H](O)C#Cc1ccc([C@@H]2[C@H]3CN(C(=O)c4ccc5c(c4)OCO5)CCCCN3[C@H]2CO)cc1	23.1	19.9	3.2
C[C@H](CO)N1C[C@H](C)[C@@H](CN(C)S(=O)(=O)c2cccc(F)c2)OCc2cnnn2CCCC1=O	6.9	4.8	2.0
COc1ccc(NC(=O)Nc2ccc3c(c2)C(=O)N([C@H](C)CO)C[C@@H](C)[C@H](CN(C)S(=O)(=O)c2cn(C)cn2)O3)cc1	-2.2	3.8	-6.0
C[C@H](NC(=O)[C@H]1[C@H](CO)[C@H]2Cn3c(ccc(-c4ccncc4)c3=O)[C@@H]1N2C)c1ccccc1	1.4	2.4	-1.0
CN1C(=O)c2cc(NC(=O)Cc3cccs3)ccc2OC[C@H]2O[C@H](CC(=O)N[C@H]3CCN(Cc4ccccc4)C3)CC[C@@H]21	1.8	6.3	-4.5
O=C(C1CCCCC1)N1[C@@H]2CN(S(=O)(=O)c3ccccc3)c3ccccc3[C@@H]2[C@@H]1CO	3.2	1.5	1.7
COc1ccc(-c2ccc3n(c2=O)C[C@H]2N[C@@H]3[C@@H](C(=O)N3CCCCC3)[C@@H]2CO)cc1	-1.6	-3.3	1.7
CS(=O)(=O)N1CC2(C1)[C@H](c1ccccc1)[C@@H](CO)N2Cc1ccc(F)cc1	-1.7	1.3	-2.9
CNC[C@H]1OCCCC[C@H](C)Oc2ccc(NC(=O)Nc3ccc(OC)cc3)cc2C(=O)N([C@H](C)CO)C[C@H]1C	-0.8	-3.3	2.4
CC(C)NC(=O)N1CCCCN2[C@@H](CO)[C@H](c3ccc(C#Cc4ccccc4F)cc3)[C@@H]2C1	-8.9	-8.0	-0.9
COc1ccc(-c2cnc3c(c2)C(=O)N([C@@H](C)CO)C[C@H](C)[C@H](CN(C)Cc2ccc(C(=O)O)cc2)O3)cc1	0.3	-2.8	3.1
CN(C)CC(=O)N1CC2(C1)[C@@H](c1ccccc1)[C@@H](CO)N2S(C)(=O)=O	7.8	9.1	-1.3
C[C@@H]1CN([C@H](C)CO)C(=O)c2ccccc2-c2ccccc2CO[C@@H]1CN(C)C(=O)Nc1ccc2c(c1)OCO2	3.2	3.9	-0.8
CC(=O)N1[C@H](CO)[C@@H](c2ccccc2)C12CN(C(=O)c1ccc3c(c1)OCO3)C2	-2.9	0.3	-3.3
CCC(=O)Nc1ccc2c(c1)C(=O)N(C)[C@H]1CC[C@H](CC(=O)N[C@H](C)c3ccccc3)O[C@H]1CO2	5.4	16.8	-11.3
CCCNC(=O)N1CC2(C1)[C@H](c1ccccc1)[C@@H](CO)N2Cc1ccccc1	?	nt	nt
CCC(=O)N1[C@@H](CO)[C@@H]2c3ccccc3N(C(=O)Nc3cccc(Cl)c3)C[C@@H]21	-3.4	-3.6	0.2
Cc1ccc(S(=O)(=O)Nc2cccc3c2O[C@H](CN(C)Cc2ccncc2)[C@@H](C)CN([C@@H](C)CO)C3=O)cc1	-2.8	-1.7	-1.1
CO[C@@H]1CC[C@@H]2CCOc3c(C#N)cccc3C(=O)N(C)C[C@H](C)C(=O)N(C)C[C@@H]1O2	-0.1	-7.0	6.9
C[C@@H]1CN([C@H](C)CO)C(=O)c2cccc(NC(=O)C3CCOCC3)c2O[C@@H]1CN(C)Cc1ccncc1	-4.0	0.4	-4.4
CN(C[C@@H]1N[C@H](CO)[C@@H]1c1ccccc1)C(=O)c1ccccc1F	7.6	5.9	1.7
C[C@@H]1CCCCO[C@@H](CN(C)S(=O)(=O)c2cn(C)cn2)[C@H](C)CN([C@@H](C)CO)C(=O)c2cc(NC(=O)Nc3cccc4ccccc34)ccc2O1	2.8	4.0	-1.2
CCCNC(=O)N1CC2(C1)[C@H](c1ccccc1)[C@H](CO)N2CC1CCCC1	-7.4	-8.2	0.8
CN1C[C@H]2[C@@H](c3ccccc31)[C@H](CO)N2Cc1ccccc1F	5.8	-0.9	6.7
Cc1noc(C)c1S(=O)(=O)N(C)C[C@H]1OCCCC[C@@H](C)Oc2ccc(NC(=O)c3ccccc3)cc2C(=O)N([C@H](C)CO)C[C@@H]1C	2.0	6.4	-4.4
COc1cccc(-c2ccc3c(c2)[C@H]2[C@H](CCN2S(=O)(=O)c2ccc(F)cc2)[C@@H](CO)N3C)c1	?	nt	nt
COc1ccc2c3c([nH]c2c1)[C@@H](CO)N(Cc1nccs1)CC31CN(Cc2nccs2)C1	1.0	1.0	0.0
COc1ccc(-c2ccccc2[C@@H]2[C@@H](CO)N(C(=O)C3CCC3)[C@H]2C#N)cc1	-2.0	-1.4	-0.6
C[C@@H]1C(=O)N[C@H](c2ccccc2)CC=CC[C@H](C)Oc2ccccc2C(=O)N1C (mixture of isomers)	0.3	1.0	-0.7
CO[C@@H]1CN(C)C(=O)c2ccc(NC(=O)Nc3c(C)noc3C)cc2OC[C@H](C)N(C)C[C@H]1C	2.7	6.9	-4.3
Cc1noc(C)c1NC(=O)Nc1ccc2c(c1)C(=O)N(C)[C@@H]1CC[C@@H](CC(=O)NCc3ccc(Cl)cc3)O[C@@H]1CO2	0.7	-1.6	2.3
CNC[C@H]1Oc2c(NC(=O)NC3CCCCC3)cccc2C(=O)N([C@H](C)CO)C[C@H]1C	1.6	-0.1	1.6
CN(C)CC(=O)N1[C@@H]2c3ccc(-c4ccccc4)c(=O)n3C[C@H]1[C@H](CO)[C@H]2C(=O)N1CCN(C)CC1	4.7	-2.8	7.5
COc1ccccc1CNC(=O)C[C@@H]1CC[C@@H]2[C@H](COC[C@H](O)CN2C(=O)Nc2ccc(Cl)cc2)O1	-4.2	-15.8	11.5
O=C(c1ccccc1)N1C[C@H]2[C@@H](c3ccccc31)[C@H](CO)N2C(=O)CN1CCOCC1	0.2	-2.0	2.3
CO[C@@H]1CN(C)C(=O)c2ccc(NC(=O)NC(C)C)cc2OC[C@H](C)N(Cc2ccccn2)C[C@@H]1C	2.8	-2.6	5.4
Cn1cnc(S(=O)(=O)N2C[C@H](O)COC[C@H]3O[C@H](CC(=O)N4CCN(c5ccccc5)CC4)CC[C@@H]32)c1	3.3	0.6	2.6
C[C@H](CO)N1C[C@H](C)[C@H](CN(C)C(=O)Nc2ccc(N3CCCCC3)cc2)OCc2cnnn2CCCC1=O	1.3	-8.6	9.9
COc1cccc(NC(=O)N[C@@H]2CC[C@@H](CC(=O)NCc3ccccn3)O[C@@H]2CO)c1	-0.4	-1.7	1.4
CC(C)CC#Cc1ccc2c(c1)O[C@H](CN(C)C(=O)Cc1ccncc1)[C@H](C)CN([C@@H](C)CO)S2(=O)=O	1.2	-2.0	3.3
CC(C)NC(=O)N1[C@H](C#N)[C@H](c2ccc(-c3ccc(F)cc3)cc2)[C@H]1CO	2.7	-0.1	2.8
CCCNC(=O)[C@@H]1[C@@H](CO)[C@@H]2Cn3c(cccc3=O)[C@H]1N2C(=O)C1CC1	1.3	-7.2	8.4
CCC(=O)N1[C@@H](CO)[C@@H](c2ccccc2)C12CN(C(=O)c1ccc(F)cc1)C2	6.2	6.8	-0.7
CCNC(=O)C[C@H]1CC[C@@H]2[C@@H](COc3ccc(NS(C)(=O)=O)cc3C(=O)N2C)O1	1.7	-1.2	2.9
N#C[C@@H]1[C@@H](c2ccccc2-c2cccc(F)c2)[C@@H](CO)N1C(=O)C1CCC1	-6.3	-7.8	1.5
COc1cccc(CNC(=O)C[C@H]2C=C[C@H](NC(=O)C3CCOCC3)[C@H](CO)O2)c1	-6.6	-2.0	-4.5
COCC(=O)N1CC2(CCN(C(=O)CN3CCOCC3)CC2)c2c([nH]c3cc(OC)ccc23)[C@@H]1CO	13.7	2.4	11.3
O=C(C[C@@H]1C=C[C@H](NC(=O)C2CCC2)[C@@H](CO)O1)NC1CCCCC1	-3.4	-1.5	-2.0
CO[C@@H]1CN(C)C(=O)c2ccc(NC(=O)Nc3ccccc3Cl)cc2OC[C@H](C)NC[C@H]1C	-0.9	5.8	-6.7
COc1ccc(CNC(=O)N(C)C[C@H]2OCc3ccccc3-c3c(n(C)c4ccccc34)C(=O)N([C@H](C)CO)C[C@@H]2C)cc1	3.8	12.0	-8.2
C/C=C/c1ccc([C@@H]2[C@H]3CN(C(=O)Nc4ccc(OC)cc4)CCCCN3[C@H]2CO)cc1	?	nt	nt
CCCNC(=O)N1C[C@H]2[C@@H](c3ccccc31)[C@@H](CO)N2C(=O)CN1CCOCC1	7.1	4.2	2.9
OC[C@@H]1[C@@H](c2ccc(C#Cc3ccccc3)cc2)[C@H]2CN(CC3CCOCC3)CCCCN12	?	nt	nt
COc1cccc(C#Cc2cnc3c(c2)C(=O)N([C@H](C)CO)C[C@@H](C)[C@@H](CN(C)C(=O)C2CCCCC2)O3)c1	-1.9	1.8	-3.7
C[C@@H]1CN([C@@H](C)CO)C(=O)c2cc(NS(=O)(=O)c3cccs3)ccc2O[C@@H](C)CCCCO[C@@H]1CN(C)C(=O)CCC(F)(F)F	-0.7	-1.6	0.9
COc1ccccc1NC(=O)N(C)C[C@@H]1OCc2ccccc2-c2ccccc2C(=O)N([C@@H](C)CO)C[C@H]1C	17.3	17.5	-0.1
COc1cccc(NC(=O)N2CC(=O)N3[C@H](CO)[C@@H](c4ccc(C5=CCCCC5)cc4)[C@H]3C2)c1	-9.1	5.7	-14.8
COc1ccc2c3c([nH]c2c1)[C@@H](CO)N(Cc1ccncc1)CC31CCN(CC2CCOCC2)CC1	11.2	11.3	-0.1
O=C(c1cccnc1)N1CCCCN2[C@H](CO)[C@@H](c3ccc(C#Cc4cccnc4)cc3)[C@H]2C1	-8.4	-5.4	-3.0
O=C(c1ccccc1F)N1CC2(C1)[C@H](c1ccccc1)[C@@H](CO)N2CC1CCOCC1	9.7	5.8	3.9
CN(C)C(=O)c1cccc(-c2ccccc2[C@H]2[C@@H](CO)N(C(=O)C3CC3)[C@H]2C#N)c1	7.3	-7.0	14.3
COc1ccccc1NC(=O)N1CCCCN2[C@H](CO)[C@H](c3ccc(-c4ccc(C)cc4)cc3)[C@@H]2C1	?	nt	nt
N#C[C@@H]1[C@H](c2ccccc2-c2cccc(F)c2)[C@@H](CO)N1C(=O)C1CC1	6.6	-12.9	19.5
COc1ccc(C#Cc2ccc([C@@H]3[C@@H](CO)N4CCCCN(C(=O)Nc5ccccc5F)C[C@@H]34)cc2)cc1	?	nt	nt
COc1ccc2c3c(n(C)c2c1)[C@@H](CO)N(C(=O)CC1CC1)CC31CCN(Cc2ccncc2)CC1	0.8	0.4	0.4

(more compounds)
SMILES	DUX4 txn inh	DUX4 txn inh difference	DUX4 txn inh control
CCCNC(=O)N1CC2(C1)CN(C(=O)Nc1ccc(F)cc1)[C@H](CO)c1[nH]c3cc(OC)ccc3c12	14.8	-6.8	21.6
COCC(=O)N1CCC2(CC1)CN(Cc1ccccn1)[C@H](CO)c1[nH]c3cc(OC)ccc3c12	18.0	4.8	13.2
COc1ccc(NC(=O)Nc2ccc3c(c2)C(=O)N([C@@H](C)CO)C[C@H](C)[C@H](CN(C)S(=O)(=O)c2cccs2)OCCCC[C@@H](C)O3)cc1	-2.6	-1.5	-1.1
O=C(C1CCC1)N1CCCCN2[C@H](C1)[C@@H](c1ccc(C#CC3(O)CCCC3)cc1)[C@@H]2CO	3.3	9.4	-6.1
C[C@H]1CN([C@@H](C)CO)C(=O)c2c(c3ccccc3n2C)-c2ccccc2CO[C@@H]1CN(C)C(=O)c1ccncc1	2.6	-6.2	8.8
C[C@@H]1CCCCO[C@H](CN(C)C(=O)Nc2cccc3ccccc23)[C@H](C)CN([C@H](C)CO)C(=O)c2cc(N(C)C)ccc2O1	1.6	4.8	-3.2
